High-throughput results as filed in PubChem BioAssay.
LASV entry inh: qHTS for Inhibitors of binding or entry into cells for Lassa Virus; 4.1% of 18,000 active; AID 720533, 2013; Potency, µM (top dose mostly 49.2 µM), inactives show top-dose activity change, negative = inhibition, actives largely listed as inhibitors; Lassa virus pseudotyped entry inhibition, cell-based qHTS; control for the full effect not named in the record; many of its hits are not listed in these tables; active = well fitted inhibition curve with a large enough effect; inconclusive = small, poorly fitted or top-dose-only effect; inactive = no such curve, though single readings can be large or run the other way; tested in HEK293 cells; further: luciferase read-out
Marburg entry: qHTS for Inhibitors of binding or entry into cells for Marburg Virus; Marburg virus pseudotype entry/binding inhibition, cell-based; control for the full effect not named in the record; many of its hits are not listed in these tables; Potency, µM (series often up to 49.2 µM), for the others: at the top dose activity change, negative = inhibition, hits mostly inhibitors; 6.5% of 18,000 active; active means well fitted inhibition curve with a large enough effect; inconclusive means small, poorly fitted or top-dose-only effect; inactive means no such curve, though single readings can be large or run the other way; tested in HEK293 cells; further: luciferase read-out
Numbers without * were called inactive; ? = inconclusive; / = no result given; & = joins results of further samples; [ ] = another dose, or the depositor's remark. On the % scale 0 is the no-effect control and ±100 the full control effect; potency means the concentration at half of the fitted maximal effect.

SMILES	LASV entry inh	Marburg entry
COc1ccc(CN(C2CC2)S(=O)(=O)c2ccccc2Br)cc1	8.4%	-8.8%
COc1ccc(CN2CCCC(c3nc(-c4ccncc4)ncc3-c3ccccc3)C2)c(OC)c1OC (stereo unspecified)	-15.1%	?
COc1ccc(C(C)(C)C)cc1N1C(=O)[C@@H]2CSCCS(=O)(=O)N2C1=O	-29.5%	25.5%
CCCCC(CC)COS(=O)(=O)O (stereo unspecified)	3.0%	7.0%
COC(=O)C1C2CC(C)C(c3ccccc32)N1C(=O)C(F)(F)F (stereo unspecified)	-9.3%&4.1%[8.59 µM]	?
c1cncc(OC2CCN(Cc3ccc4c(c3)CN(Cc3ccc5c(c3)OCCO5)CCO4)CC2)c1	4.2%	?
COC(=O)C(Cc1cc(Br)c(OC)c(Br)c1O)=NO	10.7%[8.59 µM]	-16.0%[8.59 µM]
NCCCC[C@H](NC(=O)[C@H](CS)NC(=O)[C@@H](N)Cc1cnc[nH]1)C(=O)N[C@@H](Cc1ccccc1)C(=O)N[C@@H](Cc1c[nH]c2ccccc12)C(=O)N[C@@H](Cc1c[nH]c2ccccc12)C(=O)O	-3.4%	5.6%
Clc1ccc(N2CCN(Cc3cc4ccccn4n3)CC2)cc1	-9.2%	10.9%
COCOCCn1cc(CN2CCS(=O)(=O)N(Cc3ccc(-c4cccc(N(C)C)c4)cc3)C(C)C2=O)nn1 (stereo unspecified)	18.0%	9.2%
O=C(OCCN1CCCCC1)c1c[nH]c2ccccc12	?	?
CCC12CCCN3CCC4(c5ccc(OC)c(O)c5N(C(C)=O)C4CC1)C32 (stereo unspecified)	-10.3%	-25.6%
Oc1ccc2c3c1O[C@H]1[C@@H](O)C=C[C@H]4[C@@H](C2)NCC[C@@]341	1.2%[107 µM]	22.2%[107 µM]
Cc1ccc(CNc2nc(CN3CCN(C=O)CC3)nc3ccccc23)o1	-0.6%	-18.2%
O=c1cc(-c2ccc(O)cc2)oc2cc(O)c([C@@H]3O[C@H](CO)[C@@H](O)[C@H](O)[C@H]3O)c(O)c12	-7.2%	10.0%
CC(C)(CNC(=O)c1cnn(-c2nccc(-c3cc4ccccc4o3)n2)c1C1CC1)N1CCOCC1	-13.5%	?
Oc1cc(-c2nc3ccccc3s2)cc2c1OCCN(Cc1cccn1-c1ccc(Cl)cn1)C2	72.2%[activator]	5.4%
Cc1nc2cc(NC(=O)[C@@H]3C[C@@H](Sc4ccccn4)CN3Cc3cccc(F)c3)ccc2s1	-14.8%	-42.7%
COC(=O)c1nnc(C(=O)N(C)Cc2ccccc2)c2[nH]c3ccccc3c12	2.5%	1.9%
CS(=O)(=O)Nc1cc(C(=O)N2CCNC(=O)C2)c2c(c1)ncn2CCc1ccccc1	7.7%	-10.2%
O=C(Oc1ccccc1C(=O)O)c1ccccc1O	-4.7%	2.3%
CC(C)[C@]12O[C@H]1[C@@H]1O[C@]13[C@]1(O[C@H]1C[C@H]1C4=C(CC[C@@]13C)C(=O)OC4)[C@@H]2O	?	-19.5%
COC(=O)c1cncn1C(C)c1ccccc1 (stereo unspecified)	10.6%	3.6%
O=C1CC[C@@H](C(=O)N[C@H]2C[C@@H]2c2ccccc2)N1	-2.1%	10.3%
CNc1cc(NS(=O)(=O)c2ccc(N)cc2)nc(NC)n1	3.6%	13.6%

The last 7 compounds of the section above open the next one.
SMILES	LASV entry inh	Marburg entry
COC(=O)c1nnc(C(=O)N(C)Cc2ccccc2)c2[nH]c3ccccc3c12	2.5%	1.9%
CS(=O)(=O)Nc1cc(C(=O)N2CCNC(=O)C2)c2c(c1)ncn2CCc1ccccc1	7.7%	-10.2%
O=C(Oc1ccccc1C(=O)O)c1ccccc1O	-4.7%	2.3%
CC(C)[C@]12O[C@H]1[C@@H]1O[C@]13[C@]1(O[C@H]1C[C@H]1C4=C(CC[C@@]13C)C(=O)OC4)[C@@H]2O	?	-19.5%
COC(=O)c1cncn1C(C)c1ccccc1 (stereo unspecified)	10.6%	3.6%
O=C1CC[C@@H](C(=O)N[C@H]2C[C@@H]2c2ccccc2)N1	-2.1%	10.3%
CNc1cc(NS(=O)(=O)c2ccc(N)cc2)nc(NC)n1	3.6%	13.6%
COc1ccc(NC(=O)c2ccc(-c3ccc(-c4noc(C)n4)cc3C)cc2)cc1OCCN(C)C	22.4µM*	3.55µM*
Cc1nn(C)cc1CN1CCOc2ccc(CN3CCC(Oc4cccnc4)CC3)cc2C1	0.8%	?
COc1ccc(C)cc1N1C(=O)[C@@H]2C[C@H]1CN2Cc1cccc(OC)c1O	-6.3%	-9.8%
COc1cc(O)c2c(=O)cc(-c3ccccc3)oc2c1	-7.8%	29.6%
Cc1ccccc1C1(CC(=O)N2CCCCC2c2cccnc2)CC(=O)N(C2CCCC2)C1=O (stereo unspecified)	2.6%	?
Cc1cc(O)c2c(c1)O[C@@]1(C)CC[C@H]3C(C)(C)CCCC34CO[C@@H]2[C@H]41 (stereo partly specified)	?	-19.5%
COc1cc(-c2cccnc2)cc2c1OCCN(C(=O)Cc1csc(C)n1)C2	-2.0%	15.5%
O=S1(=O)CC(N2CCC(c3ccccc3)CC2)CN1C1CCCCC1 (stereo unspecified)	7.7%	11.2%
COc1ccccc1-c1ccnc(-n2ncc(C(=O)N3CCN(C(C)C)CC3)c2-c2ccco2)n1	-10.3%	-12.5%
Nc1ncnc2c1ncn2[C@H]1CC[C@@H](CO)O1	4.0%&-10.4%	13.8%&9.2%
Nc1ccc(S(=O)(=O)Nc2ccccc2)cc1	-14.3%	6.3%
COc1cc(CCN2C(=O)N[C@@H](CCc3ccccc3)C(C(C)=O)=C2C)cc(OC)c1OC	-2.4%	-18.0%
CC=COC(=O)N[C@@H](c1ccccc1)[C@]1(C(=O)OC)CCCC1=O	5.3%[8.59 µM]	?
O=C(NCCO)c1cn(C2CCCN(Cc3cccc(C(F)(F)F)c3)C2)nn1 (stereo unspecified)	-2.9%	0.6%
Cc1c(C(=O)NCCc2cccnc2)cnn1-c1nccc(-c2ccccc2F)n1	-5.1%	36.9%[activator]
Cc1ccccc1-c1cccc(CN2CCc3nnc(C(NS(C)(=O)=O)C(C)C)n3CC2)c1 (stereo unspecified)	-7.8%	-3.2%
CCC1CN2CCC1CC2[C@@H](NC(=S)Nc1cc(C(F)(F)F)cc(C(F)(F)F)c1)c1cccc2ccc(OC)cc12 (stereo partly specified)	-26.8%	?
O=C(O)CCCC[C@@H]1SC[C@H]2NC(=O)N[C@@H]12	2.4%	-14.4%
CC(=O)Oc1ccc2c3c1O[C@H]1[C@@H](OC(C)=O)C=C[C@H]4[C@@H](C2)N(C)CC[C@@]341	-3.4%[107 µM]	-4.6%[107 µM]
COc1ccc(CNc2ncncc2-c2ccccc2CN(C)C)c(OC)c1	-21.8%	-16.5%
C1CCC[C@H]2CCCN3CC[C@H](CCCCCC[C@@H]4CCCN5CC[C@H](CC1)OC45)OC23	0.2%	0.7%
FC(F)OC(F)(F)C(F)Cl (stereo unspecified)	4.7%	27.8%
CN(N=O)C(=O)N[C@H]1C(O)C(O)C(CO)O[C@@H]1O (stereo partly specified)	12.1%	17.2%
CC(C)[C@H]1c2ccc(F)cc2CC[C@@]1(CCN(C)CCCc1nc2ccccc2[nH]1)OC(=O)C1CC1	?	8.91µM*
NC(=O)[C@H]1CCCN1C(=O)[C@H](Cc1cnc[nH]1)NC(=O)[C@@H]1CCC(=O)N1	-11.2%	-24.1%
Next section.
SMILES	LASV entry inh	Marburg entry
COc1ccc(Cl)cc1C(=O)NCCc1ccc(S(=O)(=O)NC(=O)NC2CCCCC2)cc1	-8.0%	19.5%
NCCc1cccc(O)c1	2.3%&-5.4%	?
COc1cc(=O)n2c(c1C(=O)N(C)Cc1nonc1C)CCN(Cc1ccccc1F)CC2	?	-24.3%
COC(=O)C1=C(C(=O)OC)[C@@H]2N(C)c3ccc(OC)cc3[C@@]23C[C@@H](C(=O)OC)N(C(=O)c2cccs2)C3=N1	-8.8%[8.59 µM]	?
C=CCOC(=O)N[C@@H](CC(C)C)/C(C(=O)OC)=C(\C)NCc1ccccc1	-3.7%	35.0%[activator]
COC(=O)C1=C(C)N(Cc2ccccc2)C(=NCCc2c[nH]c3ccccc23)NC1c1cccc(F)c1 (stereo unspecified)	/	-16.8%[8.59 µM]
CCc1nc2cc(C(=O)N[C@H]3CCCCNC3=O)cc(NC(=O)c3ccccc3OC)c2n1C	-10.9%	2.9%
CC1C(=O)C(Cc2cn(CCC3OCCO3)nn2)CCS(=O)(=O)N1Cc1ccc(-c2ccc(Cl)nc2)cc1 (stereo unspecified)	14.1%	95.7%[activator]
N[C@@H](CCP(=O)(O)O)C(=O)O	0.9%	-6.0%
COC(=O)CC1[C@@]2(C)C[C@]34OC5(C)OC6(C7CC(=O)OC(c8ccoc8)[C@]7(C)CCC6(O5)[C@]13C)C(OC(C)=O)[C@]4(OC(C)=O)C2OC(C)=O (stereo partly specified)	-4.0%	3.0%
CC[C@H](C)C(=O)O[C@@H]1[C@H](O)[C@@H]2[C@H](CN3C[C@@H](C)CC[C@@H]3[C@@]2(C)O)[C@@H]2C[C@@]34O[C@@]5(O)[C@@H](OC(=O)[C@](C)(O)CC)CC[C@@]3(C)[C@H]5[C@H](OC(C)=O)[C@@H](OC(C)=O)[C@H]4[C@]12O	12.2%[17.8 µM]	3.9%[17.8 µM]
COCC1CN(CCc2ccc(F)cc2)[S+](=O)([O-])c2c(OCCN3C(=O)[C@H]4[C@H](C3=O)[C@H]3C=C[C@@H]4C3)cccc2O1 (stereo partly specified)	-10.1%	-18.0%
CC(C)C1C(=O)N(Cc2cn(CC3CCCCC3)nn2)CCS(=O)(=O)N1Cc1ccc(-c2ccc(F)cc2)cc1 (stereo unspecified)	/	?
Cc1ccc([C@H]2C[C@H](n3cc(C4CC4)nn3)[C@@H](O)CN2C(=O)c2cccs2)cc1	-15.1%	24.0%
CC1=C[C@@H](C)OC2(C1)C(=O)N(Cc1ccc(Br)cc1)c1cccc(Br)c12 (stereo partly specified)	-1.6%[8.59 µM]	4.2%[8.59 µM]
C=CCN1C[C@H](COC(=O)c2ccc(C)c(C)c2)Oc2cccc(F)c2S1(=O)=O	/	-27.4%
CCn1c(-c2ccccc2F)nc2cc(C(=O)NC(c3ccccn3)C(F)(F)F)cc(NC(C)=O)c21 (stereo unspecified)	-4.8%	?
Cc1ncc(COP(=O)(O)O)c(C=O)c1O	-11.1%	-10.7%
Cc1c(O)c(=O)c2ccccc2n1C	-17.9%[8.59 µM]	41.8%[activator][8.59 µM]
CC(C)[C@H](NC(=O)[C@H](CC(=O)O)NC(=O)[C@H](Cc1ccccc1)NC(=O)[C@@H](C)NC(=O)[C@@H](N)Cc1ccc(O)cc1)C(=O)N[C@H](C(=O)NCC(N)=O)C(C)C	-2.5%	3.2%
NC1(c2ccccc2Cl)CCCCC1=O (stereo unspecified)	3.7%	23.8%
O=C(NCCN1CCOCC1)c1cnn(-c2nccc(-c3ccccc3F)n2)c1C1CC1	-1.5%	58.1%[activator]
CC1(C)CC/C(=C/c2ccc(Cl)cc2)C1(O)Cn1cncn1 (stereo unspecified)	-13.4%[107 µM]	-6.1%[107 µM]
COc1cc(OC)c(NC(=O)Nc2cc(C)on2)cc1Cl	-12.5%	?
O=C(Nc1cc(C(=O)Nc2ccc(S(=O)(=O)O)cc2)cc(C(=O)Nc2ccc(S(=O)(=O)O)cc2)c1)Nc1cc(C(=O)Nc2ccc(S(=O)(=O)O)cc2)cc(C(=O)Nc2ccc(S(=O)(=O)O)cc2)c1	-0.2%	-1.0%
Going on with the list:
SMILES	LASV entry inh	Marburg entry
CC(C)NCC(O)c1ccccc1Cl (stereo unspecified)	-18.1%	13.0%
COc1cccc([C@@H]2NC(=O)CC=C[C@H](C)[C@H](c3cccc(OC)c3)NC(=O)CC=C[C@H]2C)c1	5.4%[8.59 µM]	15.8%[8.59 µM]
CCCCCCCCCCCCCC[N+](C)(C)C	?	?
C[C@]12CCC3c4ccc(OS(=O)(=O)O)cc4CCC3C1CCC2=O (stereo partly specified)	8.3%	6.7%
Cc1cc(C)c(S(=O)(=O)OC[C@H]2C=CC[C@@H](CCC[C@H]3O[C@H](C(=O)OC(C)C)CC[C@@H]3C)O2)c(C)c1	5.2%	4.8%
NS(=O)(=O)c1cc(C2(O)NC(=O)c3ccccc32)ccc1Cl (stereo unspecified)	-4.9%	3.0%
COCC1=C(C(=O)OC)C(c2ccccc2)N(C(C)=O)C(=O)N1 (stereo unspecified)	29.7%[8.59 µM]	0.8%[8.59 µM]
C[C@H]1[C@H]2CC[C@H]3C4CC=C5C[C@@H](N(C)C)CC[C@]5(C)C4CC[C@]23CN1C (stereo partly specified)	-26.1%	11.2µM*
CC1=CC(=O)C2=C(C)CCC3C(C)C(=O)OC3C12 (stereo unspecified)	-7.1%	4.3%
NC(CO)Cc1ccccc1 (stereo unspecified)	1.6%	-8.1%
CCC(C)C(=O)O[C@@H]1C[C@@]2(C)C(c3ccoc3)OC(=O)CC23OC2(C)O[C@@]14[C@@]1(C)C(CC(=O)OC)C5(C)CC1(O)C(O)(C5OC(=O)C1(C)OC1C)C(OC(C)=O)[C@@]34O2 (stereo partly specified)	-16.6%	?
C[C@]12CCC(=O)C=C1CCC1C2C(O)C[C@]2(C)C1CC[C@]2(O)C(=O)COC(=O)CCC(=O)O (stereo partly specified)	-14.7%	1.1%

Not all compounds are listed. The share of hits here may be higher or lower than overall.
